NS1 function inh = influenza NS1 inhibition. S. cerevisiae slowed by influenza A NS1, growth recovery by OD600. Potency, µM (doses to about 46.1 µM), without a hit: at the highest dose activity, positive = more growth. hit rate 0.4% among 270,000; also: actives are rising curves; nearly all actives have a fitted effect of over 50% in size
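OD600 was taken as the measure of yeast growth restored by compound in an NS1-expressing S. cerevisiae strain. Cells had been washed out of glucose medium and diluted 1:100 into galactose -URA medium, pH 6.0.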
RE007 growth inh = less growth of the S. pombe RE007 Vpr strain. S. pombe RE007 Vpr strain, BacTiter-Glo ATP luminescence, 24 h; control for the full effect not named in the record. Potency, µM (titrated, usually from 92.2 µM), inactives show top-dose activity change, negative = less growth. hit rate 0.21% among 360,000; active = well fitted falling curve with a large enough effect; inconclusive = small, poorly fitted or top-dose-only effect; inactive = no such curve, though single readings can be large or run the other way;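 also: % is scaled to controls: 0 for no effect and ±100 for the full control effect; nearly all actives have a fitted effect of over 50% in size; the assay follows cell death caused by Vpr and the record does not say whether a fall means rescue or toxicity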
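Fission yeast RE007 carrying one integrated HIV-1 vpr copy, seeded at OD 0.01 in PMG+AL medium with 23 nL pinned compound. Grown 24 h at 30 degrees; viability read by BacTiter-Glo luminescence after 5 min.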
Lassa entry inh = blocks Lassa virus binding to or entry into cells; Lassa virus pseudotype entry inhibition, cell reporter; control for the full effect not named in the record; Potency, µM (highest dose often 37.9 µM), without a hit: top-dose activity change, negative = inhibition, hits mostly inhibitors; hit rate 1.2% among 300,000; AID 540256; active means well fitted inhibition curve with a large enough effect; inconclusive means small, poorly fitted or top-dose-only effect, or effect the other way; inactive means flat fitted curve, though single readings scatter; tested in HEK293 cells; also: % is scaled to controls: 0 for no effect and ±100 for the full control effect; nearly all actives have a fitted effect of over 50% in size; luciferase read-out
MARV entry inh = blocks Marburg virus binding to or entry into cells | Potency, µM (top dose mostly 37.8 µM), without a hit: at the top dose activity change, negative = inhibition, most hits filed as inhibitors | Marburg virus pseudotyped entry inhibition, cell reporter; control for the full effect not named in the record; about a third of the inactives were read at about 46 µM | hit rate 1.8% among 300,000 | AID 540276; active = well fitted inhibition curve with a large enough effect; inconclusive = small, poorly fitted or top-dose-only effect, or effect the other way; inactive = flat fitted curve, though single readings scatter; tested in HEK293 cells; about a fifth of its hits are not listed in these tables; also: % is scaled to controls: 0 for no effect and ±100 for the full control effect; luciferase read-out
Cruzain Triton = cruzain (T. cruzi) inhibition with detergent. purified cruzain, Z-FR-AMC fluorescence, 0.01% Triton. Potency, µM, for inactives: max response, negative = inhibition, most hits filed as inhibitors. hit rate 0.43% among 200,000; active = well fitted curve in the direction sought with a large enough effect; inconclusive = small, poorly fitted or top-dose-only effect, or another doubt; inactive = no such curve, though single readings can be large; an effect the other way counts as inactive or inconclusive;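 also: plate controls were neutral wells for no effect and buffer without enzyme for full effect; nearly all actives have a fitted effect of over 40% in size; top concentration of the series not given in the record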
Target sequence (P25779 123-467 limits assumed): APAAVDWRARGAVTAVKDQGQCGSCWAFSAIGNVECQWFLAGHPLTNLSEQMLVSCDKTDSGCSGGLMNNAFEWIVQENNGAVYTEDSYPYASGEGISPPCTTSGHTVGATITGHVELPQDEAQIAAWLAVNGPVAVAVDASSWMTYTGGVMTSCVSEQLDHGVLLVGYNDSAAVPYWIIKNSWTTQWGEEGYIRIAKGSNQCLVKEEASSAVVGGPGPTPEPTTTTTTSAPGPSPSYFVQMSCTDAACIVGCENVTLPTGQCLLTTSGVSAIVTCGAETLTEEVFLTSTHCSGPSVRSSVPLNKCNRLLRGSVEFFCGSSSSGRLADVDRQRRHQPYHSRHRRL
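Cysteine protease activity tested under reducing, mildly acidic conditions (100 mM sodium acetate pH 5.5, 5 mM DTT) plus 0.01% Triton X-100. Cruzain 1.5 nM; substrate Z-FR-AMC 2 uM; 15 min compound preincubation at room temperature.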
Cruzain noTriton = cruzain (T. cruzi) inhibition without detergent | P25779 | purified cruzain, Z-FR-AMC fluorescence, no detergent | Potency, µM, for the others: max response, negative = inhibition, hits mostly inhibitors | hit rate 2.3% among 200,000 | AID 1476; active = well fitted curve in the direction sought with a large enough effect; inconclusive = small, poorly fitted or top-dose-only effect, or another doubt; inactive = no such curve, though single readings can be large; an effect the other way counts as inactive or inconclusive;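 also: plate controls were enzyme without inhibitor for no effect and buffer without enzyme for full effect; nearly all actives have a fitted effect of over 40% in size; top concentration of the series not given in the record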
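Purified cruzain at 1.5 nM, pre-incubated 15 min with compound at room temperature in 100 mM sodium acetate pH 5.5, 5 mM DTT, 0.00005% Triton X-100. Reaction started with 2 uM Z-FR-AMC; AMC fluorescence increase over 60 s gives rate.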
SARS PLP yeast = inhibitors of SARS-CoV papain-like protease in yeast; S. cerevisiae expressing SARS-CoV PLpro, growth rescue; control for the full effect not named in the record; Potency, µM (highest dose often 32.9 µM), inactives show top-dose activity, positive = growth rescue; hit rate 0.19% among 330,000; AID 485353; also: 0% is about no effect; nearly all actives have a fitted effect of over 55% in size; growth read by luminescence after 48 h
2A StopGo = lowers the luciferase signal of an FMDV 2A StopGo reporter; human cells with a luciferase reporter of 2A StopGo recoding; control for the full effect not named in the record; Potency, µM (highest dose often 57.9 µM), inactives show at the top dose signal change, negative = less light; hit rate 1.2% among 410,000; active = well fitted falling curve with a large enough effect; inconclusive = small, poorly fitted or top-dose-only effect; inactive = no such curve, though single readings can be large or run the other way; tested in HEK293T cells; also: % is scaled to controls: 0 for no effect and ±100 for the full control effect; nearly all actives have a fitted effect of over 45% in size; luciferase light after 4 h
* marks the source's active call; other numbers are inactive results; ? = inconclusive; / = no result given; & = joins results of further samples; [ ] = another dose, or the depositor's remark. Unless noted, calls follow the shape of the dose curve; as a rule, active means well fitted rising curve with a large enough effect; inconclusive means small, poorly fitted or top-dose-only effect; inactive means no such curve, though single readings can be large or run the other way. Potency is read from the fitted curve at half-maximal effect. This is a random part of the collection; any-hit rate near 4.7%.

SMILES	NS1 function inh	RE007 growth inh	Lassa entry inh	MARV entry inh	Cruzain Triton	Cruzain noTriton	SARS PLP yeast	2A StopGo
COc1ccc(N(C(=O)c2snc(C(N)=O)c2N)C(C(=O)NC2CCCC2)c2cccs2)cc1OC (stereo unspecified)	2%	-1%	?	-18%[46.1 µM]	/	/	-1%	-4%
Cc1cc(NS(=O)(=O)c2cccs2)no1	2%	33%	-2%	12%	4.6%	0%	-1%	-8%
Cc1oc2ccc(O)c(CN(C)Cc3ccccc3)c2c1C(=O)Nc1ccccc1	/	/	?	?	-2.7%	-9%	/	-25%
COC(=O)c1cc2oc3ccccc3c2n1Cc1ccccn1	-57%	?	-4%	-7%	-17%	4%	-16%	?
COc1ccc(/C=C2\SC(=S)N(N3C(=O)CCC3=O)C2=O)cc1O	/	6%	-10%	-5%[46.1 µM]	/	/	2%	-25%
O=C(CSc1ccc(-c2ccco2)nn1)Nc1ccc(F)cc1	0%	4%	-29%	?	/	/	-6%	?
Cc1ccccc1CC1CCN(CCCNC(=O)Nc2ccccc2)CC1	-1%	-2%	/	/	/	/	-2%	-5%
O=C(c1ccccc1)N(Cc1cccc(Br)c1)C1CCS(=O)(=O)C1 (stereo unspecified)	6%	-10%	/	/	/	/	14%	-20%
COc1ccc(OC)c(CNC(=O)Cc2ccc(NC(=O)N3CCCCc4ccccc43)cc2)c1	/	/	?	/	-4.5%	3%	/	-16%
Cn1cccc1-c1nc2ccc([N+](=O)[O-])cc2[nH]1	-4%	-7%	1%	?	/	/	-1%	15%
Cc1cc(/C=N/n2c(COc3ccccc3)nc3ccccc3c2=O)c(O)c([N+](=O)[O-])c1	-9%	?	?	?	-13%	-14%	2.5µM*	-29%
COc1cccc(CN=C2Nc3ccccc3CS2)c1	/	3%	?	?	/	/	-1%	31%[activator]
COc1cccc(N(CC(=O)N2CCc3ccccc3C2)S(C)(=O)=O)c1	-3%	-13%	-7%	-12%	-0.7%	-4%	-9%	10%
COc1ccc(CN2CCN(Cc3c[nH]c4ccccc34)CC2CCO)c(F)c1 (stereo unspecified)	-3%	-17%	-22%	?	/	/	1%	-27%
Cn1c(/N=C/c2cccs2)nc2ccccc21	0%	-3%	?	-1%	1.6%	5%	-3%	/
Cc1cccc2sc(N3CCN(C(=O)CS(=O)(=O)c4ccc(F)cc4)CC3)nc12	/	/	-15%[46.1 µM]	/	-7.8%	-12%	/	?
CN(C)c1cc(-c2ccc(C#N)cc2)oc(=O)c1Cl	2%	-1%	/	/	/	/	2%	-8%
Oc1c(C(c2ccccc2)N2CCC(O)CC2)sc2nc(-c3ccco3)nn12 (stereo unspecified)	/	/	0%[46.1 µM]	/	-0.1%	-2%	/	-5%
N#Cc1ccccc1NC(=O)CSc1nc(-c2ccccc2)cc(C(F)(F)F)c1C#N	/	/	-7%[46.1 µM]	/	-1.7%	-1%	/	-18%
COc1cc(Cl)c(NS(=O)(=O)c2ccc(-c3coc(C)n3)cc2)c(OC)c1	/	/	11%[46.1 µM]	/	-7.0%	8%	/	?
CC(=O)Nc1nnc(SCC(=O)NCCOc2ccccc2)s1	9%	19%	3%	9%	2.8%	-8%	-4%	-20%
CN(C)CCNC(=O)CNC(=S)N(Cc1ccccc1)Cc1ccccc1F	/	15%	-2%	7%[46.1 µM]	/	/	1%	1%
C[C@H](NC(=O)[C@@H]1Cc2ccccc2CN1)C(=O)NC1CCCC1	4%	-2%	/	/	/	/	?	-14%
COC(=O)c1ccc(/C=N/NC(=S)NCCN2CCOCC2)cc1	/	10%	20%	?	/	/	-4%	-10%
O=C(O)c1c2c(nc3ccccc13)/C(=C/c1cccc([N+](=O)[O-])c1)CCC2	9%	-11%	/	?	/	/	-1%	22%
COc1ccc(C)cc1NC(=O)CSc1nc(=O)n(Cc2ccccn2)c2c1CCC2	/	/	13%[46.1 µM]	/	-3.6%	?	/	-29%
CCOC(=O)c1cc(S(=O)(=O)Nc2ccc(OC)cc2OC)cn1C	-2%	10%	/	/	/	/	1%	11%
O=C1CCCCN1CCCC(=O)N1CCCC(Nc2ccc(F)c(F)c2)C1 (stereo unspecified)	23%	15%	?	16%	/	/	3%	-18%
CC(=O)c1ccc(N2CCN(C(=O)c3cn(C)c(=O)c4c3c3ccccc3n4C)CC2)cc1	/	/	-10%[46.1 µM]	?	-27%	?	/	-6%
O=C(O)c1ccc(C=C(c2nc3ccccc3s2)c2nc3ccccc3s2)cc1	/	?	?	-7%[46.1 µM]	/	/	-21%	?
S=C(NNC(=S)NC1CC2CCC1C2)NC1CC2C=CC1C2 (stereo unspecified)	-1%	-2%	8%	7%[14.2 µM]	/	/	-3%	-3%
O=C(COc1ccccc1[N+](=O)[O-])Nc1cccc(S(=O)(=O)NC2=NCCCCC2)c1	/	-11%	?	-1%	/	/	-5%	19%
CN(C)S(=O)(=O)c1cc(C(=O)OCCn2cnc3c2c(=O)n(C)c(=O)n3C)ccc1Cl	/	-5%	-1%	10%[46.1 µM]	/	/	0%	?
CC1C=CCC2C(=O)N(c3cccc(C(=O)Nc4ccc(Br)cc4)c3)C(=O)C12 (stereo unspecified)	16%	-1%	-28%	-8%	/	/	-5%	-23%
Clc1ccc(OCCn2cnc3ccccc32)cc1	-72%	-27%	3%	4%	-0.5%	-3%	-6%	0%
CC(C)NS(=O)(=O)c1cc(F)ccc1CN1C(=O)c2cccnc2C1=O	-2%	7%	/	/	/	/	1%	-20%
CC1CCCCN1C(=S)NCc1ccccc1 (stereo unspecified)	-6%	4%	19%	-1%	1.2%	0%	26%	5%
O=C(O)c1ccc(NS(=O)(=O)c2ccc(N3CCCC3)c([N+](=O)[O-])c2)cc1	15%	6%	/	/	/	/	5%	-10%
CCN(C(=O)COC(=O)c1ccccc1O)c1cccc2ccccc12	/	-2%	-17%	-35%	/	/	22%	0%
COc1ccc(-c2ccc(SCC(=O)Nc3cccc(C(C)=O)c3)nn2)cc1OC	/	0%	?	?	/	/	0%	-26%
NS(=O)(=O)c1ccc(CCNCC(=O)N2CCC(Cc3ccccc3)CC2)cc1	1%	5%	/	/	/	/	-1%	-20%
CCn1nc(C)cc1C(=O)N1CCCC(C(=O)c2ccc(Oc3ccccc3)cc2)C1 (stereo unspecified)	-60%	-1%	-11%	7%	/	/	-2%	-12%
COC(=O)c1ccccc1NC(=O)CN1CCCCC1	5%	7%	?	/	/	/	0%	-18%
Cc1nn(Cc2c(F)c(F)c(F)c(F)c2F)c(C)c1NC(=O)c1ccc(COc2ccccc2Cl)o1	-42%	-6%	?	?	-11%	7%	-8%	-26%
C/C(=N\NS(=O)(=O)c1ccc(C)cc1)c1ccc(C)o1	4%	-20%	9%[46.1 µM]	?	/	/	1%	30%
COCCn1c(SCc2cnc(-c3ccccc3)s2)nnc1-c1ccncc1	-1%	-4%	-4%	-8%	-6.2%	2%	3%	-18%
CCc1ccc(-c2cc(C)no2)cc1S(=O)(=O)N1CCN(c2cccc(C)c2C)CC1	28%	3%	/	/	/	/	-4%	-7%
O=c1onc2cnc3ccccc3n12	6%	/	26%	?	-6.8%&-10.0%	-2%&-7%	/	-4%
CC(=O)Nc1ccc(NC(=O)CSc2nnc(N)n2-c2ccccc2)cc1	/	5%	9%[46.1 µM]	16%[46.1 µM]	/	/	/	-8%
Cc1ccc([N+](=O)[O-])cc1NC(=O)Cc1ccc(F)cc1	/	12%	-10%	-2%	/	/	-2%	-20%
COc1cccc(NC(=O)CN(c2cccc(F)c2)S(C)(=O)=O)c1	5%	-4%	-7%	17%	0.4%	7%	0%	/
CCCCNC(=S)NNC(=O)CCn1cc(C)cn1	17%	3%	2%	?	-1.1%	9%	7%	-20%
COc1ccc(-c2cc(=O)oc3cc(OC(C)C(=O)NCC4CCC(C(=O)O)CC4)ccc23)cc1 (stereo unspecified)	21%	-4%	/	/	/	/	-11%	-7%
CN1CCN(C2=C(Cl)C(=O)N(CCc3ccccc3)C2=O)CC1	-9%	8%	-17%	-1%	-0.5%	-5%	5%	21%
O=c1cc(CSc2ccccc2)[nH]c(=S)[nH]1	7%	35%	-1%	-17%	2.6%	-3%	5%	-14%
CCCC1Cc2nc(Cl)c(C#N)cc2CO1 (stereo unspecified)	5%	-1%	1%	-11%[46.1 µM]	/	/	1%	-6%
CCOC(=O)c1nnsc1N	5%	-19%	-3%[46.1 µM]	11%[46.1 µM]	/	/	0%	0%
O=C(NNC(=O)c1ccco1)c1ccccc1	-1%	-12%	24%	9%	1.8%	8%	1%	9%
O=C(CCN1C(=O)c2ccccc2C1=O)NC(=S)Nc1cccc(Cl)c1	14%	4%	-25%	?	-5.7%	0%	-1%	-1%
COC(=O)c1nc2n(n1)C(c1ccc(OC)c(OC)c1)C(C(=O)OC1CCCCC1)=C(C)N2 (stereo unspecified)	-16%	-2%	-20%	-2%&14%	-5.3%	?	-1%	2%
(next part)
SMILES	NS1 function inh	RE007 growth inh	Lassa entry inh	MARV entry inh	Cruzain Triton	Cruzain noTriton	SARS PLP yeast	2A StopGo
O=C(c1cccnc1)N(Cc1ccccc1)c1ccccc1	0%	9%	?	10%	2.9%	-13%	1%	-29%
C/C(=N/Nc1nc(C)cc(-c2ccccc2)n1)c1ccco1	0%	-22%	?	0%[46.1 µM]	-8.1%	8%	-14%	0%
Cc1cccc(/C=N/NC(=O)C2CCCNC2=O)c1 (stereo unspecified)	-10%	-7%	3%	7%	-3.9%	-7%	-2%	1%
CCCCC1CCC(C(=O)OCC(=O)N(CCOC)c2c(N)n(Cc3ccccc3)c(=O)[nH]c2=O)CC1 (stereo unspecified)	/	12%	-13%	9%	/	/	0%	-10%
O=C(Cn1c(CO)nc2ccccc21)NCc1ccc2c(c1)OCO2	4%	-18%	14%	8%[46.1 µM]	/	/	1%	-9%
